RVFV N-RNA FP – inhibitors of RVFV nucleoprotein–RNA binding, primary screen, biochemical, fluorescence polarization | RVFV N-RNA binding; hits give low values | P21700 | 20,000 tested, 0.1% active | % bound, % (test concentration not listed);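 active means between 0 and 58% in either replicate with normal brightness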;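 further: 100 nL library stock added to about 12 µL; 100% = protein and probe without compound and 0% = probe alone; numbers are from one replicate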
Target sequence (P21700 whole entry, looked up): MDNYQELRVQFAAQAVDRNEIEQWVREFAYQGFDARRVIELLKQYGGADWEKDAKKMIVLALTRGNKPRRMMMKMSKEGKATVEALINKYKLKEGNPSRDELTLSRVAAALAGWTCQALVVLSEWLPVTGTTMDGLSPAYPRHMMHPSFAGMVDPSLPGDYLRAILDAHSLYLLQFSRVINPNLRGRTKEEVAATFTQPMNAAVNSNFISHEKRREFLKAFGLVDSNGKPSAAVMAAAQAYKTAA
* marks the source's active call; other numbers are inactive results. A portion of the library (hit frequency here may not be typical).

Compound | RVFV N-RNA FP
COC1CCCCC1Nc1ccccc1 (stereo not drawn) | 96
Cc1cc(C)n(CCOc2ccc(Br)cc2)n1 | 94
O=C(COc1ccccc1)n1nc(-c2ccccc2)nc1NCc1cccs1 | 96
Cc1ccccc1N1CCN(C2=NC(=O)/C(=C\c3cccs3)S2)CC1 | 94
O=C(CO)n1c2ccccc2c2ccccc21 | 96
N=c1c2c(F)cccc2ncn1NC(=O)c1ccncc1 | 101
N#CC(C#N)=Cc1ccc(/C=C(\C#N)S(=O)(=O)c2ccccn2)cc1 | 87
Cc1ccc(/C=C2\CCCc3ccccc3C2=O)o1 | 90

Later entries.
Compound | RVFV N-RNA FP
CSc1nc(N)c2ncn([C@@H]3O[C@H](COP(=O)(O)OP(=O)(O)OP(=O)(O)O)[C@H](O)C3O)c2n1 (stereo partly drawn) | 96
C[C@]12CCC(=O)C(O)=C1CC[C@@H]1[C@@H]2CC[C@]2(C)C(=O)CC[C@@H]12 | 98
O=C(Nc1ccc2c(c1)OCCO2)c1cccc(-n2cnnc2)c1 | 99
Cc1ccc2ccccc2c1COC(=O)c1nonc1N | 85
O=S(=O)(Nc1ccc(Oc2ccc(Cl)cc2C2CCCCC2)nc1)c1cccc2nonc12 | 96
Nc1ccc(C(=O)NCc2ccccc2)cc1 | 97
CO[C@H]1O[C@@H]2O[C@]3(C)CC[C@@H]4[C@@H](C)CC[C@H]([C@H]1C)[C@]24OO3 | 98
Cn1nc(NC(=O)c2ccc(CSc3ccc(Cl)cc3)o2)c2c(F)cccc21 | 110

The list continues:
Compound | RVFV N-RNA FP
CCOC(=O)c1nc(C)sc1-c1ccnn1S(=O)(=O)c1cccc(Cl)c1 | 96
O=C(C1CC(=O)N(C2CCCCC2)C1)N1CCOCC1 (stereo not drawn) | 87
CCCc1ncc(C(=O)c2ccc(OC)cc2)n1C | 91
N#C/C(=C\Nc1ccc2c(c1)C(=O)OC2)C(=O)c1ccccc1 | 99
CN(Cc1cccc(O)c1)C1CCCCC1 | 86
CC1=C(C)CS(=O)N(S(=O)(=O)c2ccc(C)cc2)C1 (stereo not drawn) | 96
COc1ccc(N2C(=N)C(C)(C)NC2=O)cc1 | 95
Clc1ccc2nnc(Cc3ccccc3)n2n1 | 97

The list goes on.
Compound | RVFV N-RNA FP
CCC(=O)Oc1ccc(C(=O)Nc2nccs2)cc1 | 96
CC(C)C1NC(=S)N(c2ccccc2)N1 (stereo not drawn) | 83
CCc1ccc(NC(=O)c2ccnc(C(C)(C)C)c2)cc1 | 97
Cc1ccc(S(=O)(=O)Nc2ccc(C(=O)Nc3nccs3)cc2)cc1 | 98
CC1(C)S[C@@H]2[C@H](NC(=O)[C@H](N)c3ccc(O)cc3)C(=O)N2[C@H]1C(=O)O | 98
O=C(O)CSc1nc2scc(-c3ccccc3)c2c(=O)[nH]1 | 99
O=C(NCCSCc1ccco1)C1CCC1 | 98
Cc1ccc2nc3c4ccccc4cnc3n2c1 | 104

The list goes on.
Compound | RVFV N-RNA FP
S=C(CN1CCCC1=S)N1CCOCC1 | 95
CC(=O)N(C)c1ccc(N=Cc2cccs2)cc1 | 92
CCCn1c2c(c(=O)n(C)c1=O)C(c1ccc(Br)cc1)C1=C(COC1=O)N2 (stereo not drawn) | 82
Brc1ccc(CN2CCN(Cc3ccco3)CC2)cc1 | 101
O=C(c1ccccc1C(=O)N1CCOCC1)N1CCOCC1 | 101
CN1CCN(c2ncnc3oc(-c4ccccc4)c(-c4ccccc4)c23)CC1 | 98
COc1ccc(/C=N/NC(=O)CN2CCSCC2)c(OC)c1 | 98
O=C(Nc1ccccc1C(F)(F)F)NN1CCOCC1 | 99

Going on with the list:
Compound | RVFV N-RNA FP
O=C1CSC(c2ccccc2F)N1 (stereo not drawn) | 93
CS(=O)(=O)N1CCN(C(=S)NC2CCCCC2)CC1 | 98
Cc1onc(-c2ccccc2)c1C(=O)NNc1ccc(Cl)cc1 | 96
O=C(CSc1nc(=O)n(CCCN2CCOCC2)c2c1CCC2)Nc1nccs1 | 97
COc1ccc(-c2ncnn2-c2cccc(Cl)c2)cc1OC | 102
CNC(=O)/C(C#N)=C/N(C)C | 90
O=C(N[C@H](CO)[C@H](O)c1ccc([N+](=O)[O-])cc1)C(Cl)Cl | 103
COC(=O)/C=C1/OC(c2ccc(Cl)cc2)=CC1=O | 94

Additional entries:
Compound | RVFV N-RNA FP
COC(=O)c1c(C)n(CCC2=CCCCC2)c2ccc(O)cc12 | 94
O=C1CC(=O)N(Cc2ccco2)C(=O)N1 | 122
Nc1cccc(OCC(=O)N2CCOCC2)c1 | 96
COC(=O)c1c(C)oc(C)c1S(=O)(=O)Nc1c(-c2ccccc2)c(C(F)(F)F)nn1C | 101
O=C1C(C2=C3C(=Nc4ccccc43)/C(=C\c3ccc(O)cc3)C2=O)=C2C(=Nc3ccccc32)/C1=C\c1ccc(O)cc1 | 96
CC(C)C(=O)/C(C#N)=N/Nc1ccc(F)cc1 | 99
CC(C)(C)NC(=O)N1CCC(C(=O)c2ccccc2)CC1 | 94
CCCN(CC1CC1)c1nc(C)nc(Nc2c(Cl)cc(Cl)cc2Cl)c1Cl | 94

Continued.
Compound | RVFV N-RNA FP
Cc1ccc(/C=C2/C(=O)NC(=O)N(C3CCCCC3)C2=O)cc1 | 94
[O-][n+]1onc2c1CCc1nnccc1-2 | 101
NS(=O)(=O)c1ccc(CNS(=O)(=O)c2cccc3nonc23)cc1 | 92
CC(=O)Nc1cccc(C(=O)N2CCN(c3ccccc3)CC2)c1 | 98
O=C1c2cccc3c(Cl)ccc(c23)C(=O)N1c1ccccn1 | 89
O=C1C2ON(c3ccccc3)C(c3ccc(F)cc3)C2C(=O)N1c1ccccc1 (stereo not drawn) | 89
CCCCSc1nnc(CNC(=O)c2ccccc2)n1-c1ccccc1 | 96
O=S(=O)(NCC(c1ccco1)N1CCN(c2ccc(F)cc2)CC1)c1cc(F)ccc1F (stereo not drawn) | 97

A different layout for some results above.
O=C1c2cccc3c(Cl)ccc(c23)C(=O)N1c1ccccn1
  RVFV N-RNA FP: 89
O=C1C2ON(c3ccccc3)C(c3ccc(F)cc3)C2C(=O)N1c1ccccc1 (stereo not drawn)
  RVFV N-RNA FP: 89
CCCCSc1nnc(CNC(=O)c2ccccc2)n1-c1ccccc1
  RVFV N-RNA FP: 96
O=S(=O)(NCC(c1ccco1)N1CCN(c2ccc(F)cc2)CC1)c1cc(F)ccc1F (stereo not drawn)
  RVFV N-RNA FP: 97

More compounds follow.
Compound | RVFV N-RNA FP
C/C(=N\NC(=O)c1cccnc1)C1COc2ccccc2O1 (stereo not drawn) | 90
C=CCc1cccc(CNc2ccc(C(=O)OCC)cc2)c1O | 98
CC1CCCN(C(=O)CCS(=O)(=O)Cc2ccccc2)C1 (stereo not drawn) | 100
CCN1C(=O)C=CC1=O | 92
NS(=O)(=O)c1ccc(NC(=O)NC2CC(=O)N(c3ccc(Cl)cc3)C2)cc1 (stereo not drawn) | 96
COc1ccc(-c2cc(=O)[nH]c(=S)[nH]2)cc1 | 85
Cc1ccc(NC(=O)CCc2ccc(C)o2)c(Br)c1 | 97
CCOC1=NC(C(F)(F)F)(C(F)(F)F)N=C(N2CCOCC2)O1 | 79

Next part:
Compound | RVFV N-RNA FP
COC(=O)c1c(C)nn(-c2ccccn2)c1-c1cc(C)on1 | 97
O=C(OCc1ccccc1)Sc1nc2ccccc2o1 | 90
O=c1[nH]cc(NC(=S)N2CCOCC2)c(=O)[nH]1 | 97
C=CCNC(=S)NN1CCN(C)CC1 | 86
O=c1c2c(N3CCOCC3)cc(N3CCOCC3)nc2n(-c2ccccc2)c(=O)n1-c1ccccc1 | 90
O=C(OC1CCCCC1)c1c(F)c(F)c(F)c(F)c1F | 92
CCOC(=O)C1CCCN(CC(O)COc2ccc3ccccc3c2)C1 (stereo not drawn) | 96
Cn1nc(C(F)(F)F)c(-c2ccccc2)c1NC(=O)COCC(=O)O | 91

Continued.
Compound | RVFV N-RNA FP
CCCCCCCc1c(COC)[nH]c(=S)[nH]c1=O | 98
Cn1c(=O)n(C)c2cc(Br)c(N)cc21 | 100
CSC(=NC#N)N1CCN(C(=NC#N)SC)CC1 | 96
CON(C)C(=O)c1ccc(C(C)(C)C)cc1 | 91
c1ccc(C(NCc2cccnc2)(c2ccccc2)c2ccccc2)cc1 | 101
CCOC(=O)c1ccc(NC(=S)Nc2cccc(N)n2)cc1 | 93
FC(F)(F)c1nnc(-c2ccccc2)o1 | 93
Cc1nc(COP(=O)(O)O)cc(CN(CCN(CC(=O)O)Cc2cc(COP(=O)(O)O)nc(C)c2O)CC(=O)O)c1O.[Mn] | 97

Additional results follow:
Compound | RVFV N-RNA FP
Cc1ccc(N2C(=O)c3ccccc3C2(O)c2ncc[nH]2)cc1 (stereo not drawn) | 88
COC(=O)c1cccc(N2C(=O)C3C4C=CC(C)(O4)C3C2=O)c1 (stereo not drawn) | 91
S=C(NC1CCCCCC1)NC1CC1 | 96
CSc1ccc(S(=O)(=O)NCC2CCCO2)cc1 (stereo not drawn) | 99
CN1C(=O)CCS(=O)(=O)C1c1ccc(Cl)cc1 (stereo not drawn) | 95
CC12CC=CCC1C(=O)N(CCC(=O)O)C2=O (stereo not drawn) | 95
Cn1nccc1C(=O)Nc1cc(Cl)ccc1Cl | 97
CSc1nnc(-c2ccc(S(=O)(=O)N=S(C)(=O)c3ccc(Cl)cc3)s2)n1C (stereo not drawn) | 98

Next compounds:
Compound | RVFV N-RNA FP
COC(=O)CCC1CCCCC1=O (stereo not drawn) | 98
Cc1nc2ccc(NC(=O)c3ccc4ncsc4c3)cc2s1 | 93
OCC1OC(Oc2ccc3cc(Br)ccc3c2)C(O)C(O)C1O (stereo not drawn) | 91
CC(C)CNc1c(Cl)cnn(C)c1=O | 99
COc1ccccc1C(=O)N=S1CCN(c2ncc(C(F)(F)F)cc2Cl)CC1 | 93
CNc1cc2c(Nc3cccc(Br)c3)ncnc2cn1 | 84
O=C(Cc1csc(NC(=O)Nc2ccc(Cl)cc2)n1)Nc1nccs1 | 91
CC(C)(C)C(=O)Nc1ccc2c(c1)OCCO2 | 96

Further records.
Compound | RVFV N-RNA FP
NC(=O)c1ccc(N=Cc2ccc(O)cc2)cc1 | 85
C=CP(=O)(O)c1ccccc1 | 93
O=C(NCc1ccccc1)c1ccc2ncccc2c1 | 92
C[n+]1ccccc1/C=N/O | 94
COC(=O)CCC(=O)N1CCOCCOCCOCC1 | 99
CCOC(=O)c1sc2nc(NC(=O)c3cccs3)sc2c1C | 92
O=c1cc(O)cc(/C=C/c2ccc(O)c(O)c2)o1 | 83
CCOc1ccc(S(=O)(=O)N(C)CC(=O)NC2CCCCC2)cc1C | 94

Later entries:
Compound | RVFV N-RNA FP
O=C1CS/C(=N\N=C2C3CC4CC(C3)CC2C4)N1 | 90
COC(=O)c1cccc(NC(=O)CSc2ncccn2)c1 | 87
CCOC(=O)C1(c2ccccc2)CCN(CCC(C#N)(c2ccccc2)c2ccccc2)CC1 | 92
Cc1csc2c(N3CCN(C(=O)c4ccc(Cl)cc4)CC3)ncnc12 | 95
CN(C)/C=C1\COc2ccc(Cl)cc2C1=O | 88
O=S(=O)(Nc1ccc(O)c2ccccc12)c1ccccc1 | 90
CN(C)/C=C/C(=O)c1ccccc1 | 93
CC1=NN(CCC#N)C(=O)/C1=C\c1ccc(N(C)C)cc1 | 102

Other results follow:
Compound | RVFV N-RNA FP
Nc1ncnc2c1ncn2CCNCc1ccc2c(c1)OCO2 | 98
Cc1oc(S(=O)(=O)N2CCOCC2)cc1-c1nc(-c2ccc(C(F)(F)F)cc2)no1 | 98
CN1CCN(NC(=O)Cc2ccccc2Cl)CC1 | 95
O=C1CN(c2ccccc2F)C(=O)CN1/N=C/c1cccs1 | 93
O=C(Nc1ccccc1C(=O)O)c1cccc(Cl)c1 | 91
CN(C)CCCc1cc(C(=O)Nc2ccc(-c3ccncc3)cc2)ccc1O | 101
CCN1C(=O)/C(=C2\SC(=S)N(N)C2=O)c2ccccc21 | 93
S=C1NC2=C(CCc3ccccc32)C(c2cccnc2)N1 (stereo not drawn) | 92

More structures.
Compound | RVFV N-RNA FP
CCN(c1ccccc1)S(=O)(=O)c1ccc(N)cc1 | 96
CCCN1CCC(NCCc2ccc(Cl)cc2)CC1 | 95
Cc1cc(C)cc(N(C(C)C(N)=O)S(C)(=O)=O)c1 (stereo not drawn) | 92
CC(O)c1cccc(NC(=O)C2C3C=CC(C3)C2C(=O)O)c1 (stereo not drawn) | 89
Oc1ccc2c3c1O[C@H]1c4[nH]c5c(c4C[C@@]4(O)[C@@H](C2)N(CC2CC2)CC[C@]314)C[C@@]1(O)[C@H]2Cc3ccc(O)c4c3[C@@]1(CCN2CC1CC1)[C@H]5O4 | 101
COC(CNC1=CC(=O)OC12CCCCC2)OC | 102
CCc1sc(NC(=O)CN2CCCC2)nc1-c1ccccc1 | 90
O=C(N=C1SCCN1CC(O)c1ccccc1)c1ccccc1 (stereo not drawn) | 91

(list continues)
Compound | RVFV N-RNA FP
Cc1ccc(S(=O)(=O)Nc2cncc(C(=O)N3CCc4ccccc43)c2)cc1 | 92
N#Cc1ccc(Sc2ccc(C#N)c(C#N)c2)cc1C#N | 84
CC1(C)C(c2ccccc2)=NC(c2ccccc2)=[N+]1[O-] | 91
COC(=O)c1ccc(CC(=O)c2c(C)cc(O)cc2O)o1 | 99
CC1CN(CCCOc2ccc(C(C)(C)C)cc2)CC(C)O1 (stereo not drawn) | 110
Cc1cc(C)c2c(n1)sc1c(=O)oc(C)nc12 | 88
Cc1nnsc1-c1noc(C)c1-c1nc(-c2cc(C(F)(F)F)cc(C(F)(F)F)c2)no1 | 88
COc1ccc(NC=O)c2ncccc12 | 105

(continued)
Compound | RVFV N-RNA FP
CCc1nnsc1C(=O)Nc1cc(OC)ccc1OC | 90
Cc1onc(-c2ccccc2)c1N1C(=O)CCN(Cc2ccccc2)C1=O | 101
CN(C(=O)CSc1nc2ccccc2[nH]1)c1ccccc1 | 96
O=P(O)(Cc1ccccc1)c1ccccc1 | 95
S=C1SCN(C2CCCCC2)CN1Cc1ccccc1 | 92
CCc1ccc(S(=O)(=O)NCCN2CCN(S(=O)(=O)c3ccc(CC)cc3)CC2)cc1 | 89
CC1CCN(CCn2c(=S)[nH]c3ccccc3c2=O)CC1 | 99
COc1cc(CO)ccc1OCc1ccccc1C | 105
CC1SC(=S)N(c2ccccc2)C1=O (stereo not drawn) | 87
CC1CN(C(=O)C(c2ccccc2)c2ccccc2)CC(C)O1 (stereo not drawn) | 98

Screens (PubChem)
